# AF4-AF9 inh – inhibitors of AF4 peptide binding to AF9, primary screen, biochemical, AlphaScreen, biotin-AF4 peptide, FLAG-AF9, single point; AID 651704, 2012; inhibition, % at 10 µM; actives 0.47% (n = 350,000); Protein AF-9 (Homo sapiens), P42568;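 active means every replicate reaching a set inhibition limit, whatever the replicate mean, cut at about 25% in these data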;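 further: 0% = plate neutral control median and 100% = total signal loss; the record names both 10 and 1 µM as test concentration; the first replicate is given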
# Target sequence (P42568 whole entry, looked up): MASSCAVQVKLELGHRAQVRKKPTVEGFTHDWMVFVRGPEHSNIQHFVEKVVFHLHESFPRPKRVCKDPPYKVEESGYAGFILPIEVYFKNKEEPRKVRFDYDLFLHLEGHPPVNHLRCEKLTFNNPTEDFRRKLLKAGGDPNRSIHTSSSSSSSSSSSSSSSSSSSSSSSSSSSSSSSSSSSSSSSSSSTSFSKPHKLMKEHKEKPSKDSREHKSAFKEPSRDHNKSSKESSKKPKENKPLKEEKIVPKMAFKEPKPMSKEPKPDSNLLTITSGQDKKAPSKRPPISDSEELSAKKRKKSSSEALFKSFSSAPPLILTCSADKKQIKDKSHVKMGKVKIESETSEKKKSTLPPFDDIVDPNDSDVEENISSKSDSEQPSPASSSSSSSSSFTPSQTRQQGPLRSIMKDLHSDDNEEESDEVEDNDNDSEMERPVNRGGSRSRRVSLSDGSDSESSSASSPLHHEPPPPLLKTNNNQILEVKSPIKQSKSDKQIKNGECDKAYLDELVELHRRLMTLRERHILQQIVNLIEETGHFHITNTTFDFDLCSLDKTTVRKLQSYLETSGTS
# Ecoli rRNA inh – reduced GFP signal of wild-type E. coli, primary screen, bacterial rRNA inhibitor project, GFP/RFP fluorescence, OD600, single point | AID 720706, 2013 | GFP signal change (wild-type ribosome), % (test concentration not listed) | E. coli WT GFP vs humanized-ribosome RFP mutants, 24 h; stronger effect = lower value; DMSO median 0, no signal -100 | actives 1.6% (n = 350,000);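 active means significant combined selectivity score with lowered wild-type GFP, culture density cut under 30%, mutant RFP and density less affected; inactive means any of these conditions unmet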; further: one replicate is shown; some compounds called inactive have numbers as strong as hits
# Ecoli rRNA inh OD600 – further read-out of Ecoli rRNA inh, marked with its call; OD600 change, %; measured here: OD600 growth;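 optical density of the mix in the first replicate; 0 = DMSO median and -100 = no signal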
# Ecoli rRNA inh RFP – also measured in Ecoli rRNA inh; calls as there; RFP signal change, %; measured here: RFP humanized mutant strains;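 first replicate; 0 = DMSO median and -100 = no signal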
# The depositor's hits bear a star.
SMILES,AF4-AF9 inh,Ecoli rRNA inh,Ecoli rRNA inh OD600,Ecoli rRNA inh RFP
CCOC(=O)C(=CNc1ccc(N2CCCCC2)c(S(=O)(=O)Nc2ccccc2OC)c1)C(=O)OCC,3.0,13.5,5.8,0.1
COCC#Cc1ccc([C@H]2[C@H](CO)N3CCCCN(Cc4cncnc4)C[C@@H]23)cc1,2.6,2.9,8.3,-2.9
COc1ccc(S(=O)(=O)Nc2ccc3c(c2)C(=O)N([C@@H](C)CO)C[C@@H](C)[C@@H](CN(C)S(C)(=O)=O)O3)cc1,-10.2,-1.4,1.3,-0.7
CO[C@H]1CN(C)C(=O)c2cc(NC(=O)Nc3ccccc3F)ccc2OC[C@H](C)N(C)C[C@H]1C,-0.3,2.6,-3.8,-2.2
CCS(=O)(=O)Nc1ccc2c(c1)C(=O)N(C)C[C@H](OC)[C@H](C)CN(CCC(F)(F)F)[C@H](C)CO2,-1.6,0.4,0.4,-0.8
O=C(C[C@@H]1C=C[C@@H](NC(=O)c2cccc(F)c2)[C@@H](CO)O1)NCc1ccccc1,-1.5,2.1,-0.9,0.9
CO[C@@H]1CN(C)C(=O)c2cc(NC(=O)c3ccc4c(c3)OCO4)ccc2OC[C@H](C)N(CCC(F)(F)F)C[C@H]1C,-3.2,-8.3,-13.9,-4.3
Cc1ccc(S(=O)(=O)N(C)C[C@H]2Oc3ccc(NC(=O)Nc4c(C)noc4C)cc3CC(=O)N([C@H](C)CO)C[C@@H]2C)cc1,1.1,0.8,6.0,-1.2
OC[C@@H]1CN(Cc2ccc(F)cc2)C[C@H](n2cnc3c(NC4CCCC4)ncnc32)O1,0.9,-15.1,-8.5,0.5
CNC[C@@H]1Oc2c(NS(=O)(=O)c3ccc(C)cc3)cccc2C(=O)N([C@@H](C)CO)C[C@H]1C,-1.4,6.3,7.9,-2.4
C[C@@H]1CN([C@H](C)CO)C(=O)c2cccc(NS(=O)(=O)c3ccc(F)cc3)c2O[C@@H]1CN(C)Cc1ccncc1,0.0,4.3,-1.4,-2.4
CO[C@H]1CN(C)C(=O)c2cc(NC(=O)c3ccccc3F)ccc2OC[C@H](C)NC[C@H]1C,-3.3,-1.0,-1.5,3.5
CC(=O)Nc1ccc2c(c1)C(=O)N(C)[C@H]1CC[C@@H](CC(=O)NCc3ccc(F)cc3)O[C@H]1CO2,-2.2,1.2,4.6,1.0
CC(C)NC(=O)N[C@H]1CC[C@@H](CCn2cc(-c3ccc(F)cc3)nn2)O[C@@H]1CO,-2.2,-6.8,-4.1,0.9
Cc1noc(C)c1S(=O)(=O)N(C)C[C@H]1OCCCC[C@H](C)Oc2ccc(NC(=O)C3CCCCC3)cc2C(=O)N([C@H](C)CO)C[C@H]1C,1.1,-0.4,-6.0,1.3
Nc1ncnc2c1ncn2[C@@H]1O[C@H](CNC(=O)[C@@H](N)CO)[C@@H](O)[C@H]1O,-0.2,2.8,1.5,-0.9
C[C@H]1CN([C@@H](C)CO)C(=O)c2cc(NC(=O)CCCN(C)C)ccc2O[C@H]1CN(C)Cc1ccc(-c2ccccc2)cc1,13.5,2.9,4.3,5.3
O=C(C[C@H]1CC[C@@H]2[C@H](COC[C@H](O)CN2C(=O)c2ccc(F)cc2)O1)N1CCOCC1,-3.0,2.4,13.3,7.2
CO[C@@H]1CN(C)C(=O)c2ccc(NS(C)(=O)=O)cc2OC[C@H](C)N(Cc2cncnc2)C[C@H]1C,-20.1,0.9,4.5,-2.8
Cc1noc(C)c1S(=O)(=O)NC(=O)C1(C)CCN1C(=O)Cc1ccc(-c2ccccc2)cc1 (configuration not stated),5.2,0.2,7.5,3.1
CCCS(=O)(=O)NC(=O)C1(C)CCCN(C(=O)c2ccc3ccccc3c2)C1 (configuration not stated),-3.9,-0.2,0.1,-3.2
CNC[C@H]1Oc2cc(C#Cc3ccccn3)ccc2S(=O)(=O)N([C@H](C)CO)C[C@H]1C,1.4,2.1,-4.8,1.6
CN(CC(=O)Nc1ccc(F)cc1)C(=O)COC(=O)c1cc(Br)c(Br)s1,0.7,-21.7,-32.2,-9.9
CC(=O)N1CC2(C1)[C@H](c1ccc(-c3ccc(C#N)cc3)cc1)[C@H](CO)N2C(C)=O,-1.9,-2.7,0.7,-1.5
CCOC(=O)C1CCCN(C(=O)c2cc(-c3ccccc3)cs2)CC1 (configuration not stated),-2.6,-39.9,-72.3,-8.8
N#C[C@H]1[C@H](c2ccc(-c3cccc(F)c3)cc2)[C@H](CO)N1C(=O)NC1CCCC1,-1.3,-4.3,-54.8,-3.6
COc1ccc(C#Cc2ccc3c(c2)O[C@@H](CN(C)C(C)=O)[C@H](C)CN([C@H](C)CO)S3(=O)=O)cc1,5.2,-2.3,-11.4,3.9
Cc1[nH]nc2c1C(c1cccc(C(F)(F)F)c1)NC2=O (configuration not stated),-0.3,6.3,4.6,2.1
COc1ccccc1-c1csc(Nc2ccc(Oc3ccccc3)cc2)n1,-3.9,-7.2,5.1,4.3
CCCNC(=O)N1CC2(C1)CN(C(=O)CC1CC1)[C@H](CO)c1c2c2ccc(OC)cc2n1C,-6.7,1.8,21.4,-5.1

# Structural class, the entries above containing a CF3 group
SMILES,AF4-AF9 inh,Ecoli rRNA inh,Ecoli rRNA inh OD600,Ecoli rRNA inh RFP
CCS(=O)(=O)Nc1ccc2c(c1)C(=O)N(C)C[C@H](OC)[C@H](C)CN(CCC(F)(F)F)[C@H](C)CO2,-1.6,0.4,0.4,-0.8
CO[C@@H]1CN(C)C(=O)c2cc(NC(=O)c3ccc4c(c3)OCO4)ccc2OC[C@H](C)N(CCC(F)(F)F)C[C@H]1C,-3.2,-8.3,-13.9,-4.3
Cc1[nH]nc2c1C(c1cccc(C(F)(F)F)c1)NC2=O (configuration not stated),-0.3,6.3,4.6,2.1

# Later entries.
SMILES,AF4-AF9 inh,Ecoli rRNA inh,Ecoli rRNA inh OD600,Ecoli rRNA inh RFP
C[C@H](CO)N1C[C@H](C)[C@H](CN(C)C(=O)Nc2ccc(F)cc2)Oc2ccc(NC(=O)CCC(F)(F)F)cc2C1=O,-0.6,0.0,4.0,-1.2
Cc1ccc(OCc2nc3ccccc3n2C(C(=O)NC(C)(C)C)c2ccccc2)cc1 (configuration not stated),-2.0,-10.0,-13.7,-10.2
CCCC(=O)N1C[C@@H]2[C@H](c3ccccc31)[C@H](CO)N2Cc1cocn1,-15.2,-2.1,-5.9,0.2
C[C@H]1CN([C@@H](C)CO)C(=O)c2cc(/C=C/c3ccccc3)cnc2O[C@H]1CN(C)C(=O)c1cccnc1,-0.3,6.2,7.0,1.2
O=C(Nc1ccccc1F)N1CCCCN2[C@H](C1)[C@@H](c1ccc(-c3cccnc3)cc1)[C@@H]2CO,-3.1,-4.2,3.8,-3.5
CCCN1[C@@H]2c3ccc(-c4ccc(F)cc4)c(=O)n3C[C@@H]2[C@@H](CO)[C@@H]1C(=O)OC,-0.8,4.0,-0.4,-1.8
Cc1cccc(C)c1NC(=O)C1(C)CN(S(C)(=O)=O)CC(=O)N1C1CC1 (configuration not stated),-0.9,6.7,7.2,-4.5
CCC(c1nnnn1-c1ccc2c(c1)OCCO2)N1CCN(c2ccccc2)CC1 (configuration not stated),3.2,-15.2,-20.6,-0.2
Cc1noc(C)c1NC(=O)Nc1ccc2c(c1)CC(=O)N([C@@H](C)CO)C[C@@H](C)[C@H](CN(C)C)O2,-3.7,4.9,2.9,1.2
Cc1cc(C(=O)Nc2cccc3c2O[C@H](CN(C)Cc2ccc4c(c2)OCO4)[C@H](C)CN([C@@H](C)CO)C3=O)n(C)n1,-0.3,0.0,2.8,-1.3
C[C@@H]1CN([C@@H](C)CO)C(=O)c2cc(NS(=O)(=O)c3cccs3)ccc2O[C@@H](C)CCCCO[C@H]1CN(C)Cc1ccncc1,2.8,-3.2,-7.5,2.9
CC(C)C#Cc1cnc2c(c1)C(=O)N([C@H](C)CO)C[C@@H](C)[C@@H](CN(C)Cc1ccccn1)O2,-2.5,0.9,-1.0,-1.5
CC(C)NC(=O)N(C)C[C@@H]1Oc2ccc(NC(=O)C3CC3)cc2CC(=O)N([C@H](C)CO)C[C@H]1C,-6.9,7.4,16.2,-4.1
C[C@H]1CN([C@@H](C)CO)C(=O)c2cc(-c3ccc(F)cc3)cnc2O[C@H]1CN(C)S(C)(=O)=O,-6.3,0.8,8.7,-0.7
COc1cccc(S(=O)(=O)Nc2ccc3c(c2)[C@H]2C[C@@H](CC(=O)NCC(F)(F)F)O[C@@H](CO)[C@H]2O3)c1,0.1,-0.9,-2.3,-1.1
CC(C)c1ccc(CC(=O)N2CCC2(C)C(=O)NS(=O)(=O)c2ccc(F)cc2F)cc1 (configuration not stated),-9.3,4.0,13.7,-0.6
Cc1noc(C)c1S(=O)(=O)Nc1ccc2c(c1)C(=O)N([C@H](C)CO)C[C@@H](C)[C@@H](CN(C)S(=O)(=O)c1ccccc1)OCCCC[C@H](C)O2,2.0,3.0,-7.1,3.3
COc1ccc2c3c([nH]c2c1)[C@H](CO)NCC31CN(C(=O)C2CC2)C1,-1.6,3.9,7.1,-3.3
C[C@@H]1CCCCO[C@H](CN(C)C(=O)C2CCCCC2)[C@H](C)CN([C@@H](C)CO)C(=O)c2cc(NC(=O)C3CCCCC3)ccc2O1,-0.3,-7.2,-6.4,-1.4
COc1ccc(-c2cnc3c(c2)C(=O)N([C@H](C)CO)C[C@H](C)[C@H](CN(C)C(=O)C2CCOCC2)O3)cc1,-1.7,3.8,11.7,-2.7
N#C[C@@H]1[C@H](c2ccccc2-c2ccc(F)cc2)[C@H](CO)N1C(=O)Cc1ccccc1,2.0,-16.7,-64.2,3.1
COc1ccc(S(=O)(=O)Nc2cccc3c2O[C@@H](CN(C)C(=O)Nc2ccc4c(c2)OCO4)[C@H](C)CN([C@H](C)CO)C3=O)cc1,1.4,-0.8,1.1,-0.5
O=C(C[C@H]1C=C[C@@H](NC(=O)c2cccnc2)[C@@H](CO)O1)NCc1ccncn1,-3.4,1.1,6.0,-0.1
O=C(COC(=O)c1ccc2c(c1)OCCO2)NCc1ccc(Cl)cc1,0.1,11.0,11.4,0.1
Cc1ccc(S(=O)(=O)N(C)C[C@H]2OCCCC[C@@H](C)Oc3ccc(NS(=O)(=O)c4ccccc4)cc3C(=O)N([C@@H](C)CO)C[C@@H]2C)cc1,-0.6,-1.8,5.2,1.9
O=C(C1CC1)N1[C@H](CO)[C@@H]2c3ccccc3NC[C@@H]21,-2.1,-0.9,2.9,-1.7
C[C@H]1CN([C@@H](C)CO)C(=O)c2cccc(NS(=O)(=O)c3ccccc3)c2O[C@@H]1CN(C)Cc1ccc2c(c1)OCO2,0.1,-0.2,2.1,-0.1
C[C@@H]1CN([C@H](C)CO)S(=O)(=O)c2ccc(C#CC3CC3)cc2O[C@H]1CN(C)Cc1ccccn1,5.5,-25.9,-59.6,2.0
O=C([C@H]1[C@H](CO)[C@H]2Cn3c(cccc3=O)[C@@H]1N2C(=O)c1ccc(F)cc1)N1CCCCC1,-1.2,2.3,10.8,-0.8
C[C@@H]1CN([C@@H](C)CO)C(=O)c2cc(NC(=O)CCCN(C)C)ccc2O[C@H]1CN(C)C(=O)Nc1ccc2c(c1)OCO2,-3.0,3.3,-0.2,-3.9
C[C@@H]1CN([C@H](C)CO)C(=O)c2cc(Br)cnc2O[C@H]1CN(C)C(=O)NC1CCCC1,-4.6,4.7,10.9,-2.8
CC1=C(C(=O)N(C(C)C)C(C)C)CC(CC(=O)NCc2ccco2)C(=O)N1CCCN1CCCC1=O (configuration not stated),-1.8,15.4,18.2,0.7
C[C@@H]1CN([C@@H](C)CO)C(=O)c2cc(-c3cccc(C#N)c3)cnc2O[C@H]1CN(C)C(=O)C1CCCCC1,0.0,-6.7,-1.2,-1.8
C[C@@H]1CN([C@@H](C)CO)C(=O)c2cc(NS(=O)(=O)c3ccccc3)ccc2O[C@@H](C)CCCCO[C@H]1CN(C)C(=O)Cc1ccccc1,1.5,-2.4,-8.2,-2.0
Cc1ccc(S(=O)(=O)N[C@H]2C=C[C@H](CC(=O)NCc3ccc(Cl)c(Cl)c3)O[C@H]2CO)cc1,-0.5,-7.5,-5.0,1.1
COc1cccc(S(=O)(=O)N(C)C[C@H]2Oc3cc(C4=CCCC4)ccc3S(=O)(=O)N([C@@H](C)CO)C[C@H]2C)c1,-0.4,6.6,0.8,0.1
CN(C)C(=O)C[C@H]1CC[C@@H]2[C@@H](COc3ccc(NC(=O)c4cnccn4)cc3C(=O)N2C)O1,-0.9,-0.4,7.6,-1.2
COc1ccccc1-c1ccc2c(c1)O[C@@H](CN(C)C(=O)c1cccnc1)[C@H](C)CN([C@@H](C)CO)S2(=O)=O,0.3,-1.0,-6.8,-1.9
CCS(=O)(=O)Nc1ccc2c(c1)C(=O)N(C)C[C@@H](OC)[C@@H](C)CN(C)[C@@H](C)CO2,-0.4,3.1,6.8,0.2
O=C(C1CC1)N1[C@H](CO)[C@@H](c2ccccc2)C12CN(CCC(F)(F)F)C2,0.6,4.0,10.0,-1.6
CC1(C(=O)Nc2cnc3ccccc3c2)CCN1Cc1ccc(OC(F)(F)F)cc1 (configuration not stated),-2.9,-29.5,-62.4,5.4

# Record cards, from the list above. Order of values: AF4-AF9 inh | Ecoli rRNA inh | Ecoli rRNA inh OD600 | Ecoli rRNA inh RFP
# COc1ccccc1-c1ccc2c(c1)O[C@@H](CN(C)C(=O)c1cccnc1)[C@H](C)CN([C@@H](C)CO)S2(=O)=O is listed as 0.3 | -1.0 | -6.8 | -1.9
# COc1cccc(S(=O)(=O)N(C)C[C@H]2Oc3cc(C4=CCCC4)ccc3S(=O)(=O)N([C@@H](C)CO)C[C@H]2C)c1 is listed as -0.4 | 6.6 | 0.8 | 0.1

# An excerpt; the hit share may differ from the screen's.
